Assay outcomes deposited in PubChem by Broad Institute.
HIV Env fusion: inhibitors of HIV Env-mediated cell fusion; HeLa-JRFL Env/CEM21 cell fusion, luciferase; inhibition, % at 12.3 µM; hit rate 1.1% among 360,000; AID 651610;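 active = mean replicate inhibition score of at least 50 and every replicate individually at or above 50; inconclusive = only one of the two criteria met; inactive = mean below 50 and not all replicates reaching 50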;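 also: 0% = plate neutral controls and 100% = maraviroc near 300 nM; one replicate is shown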
UUG fidelity: yeast start codon fidelity modulation; hit rate 0.13% among 350,000; AID 602363; activity score, % at 18.7 µM; S. cerevisiae UUG-firefly luciferase reporter, luminescence/redox ratio;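 active = replicate mean at a twofold rise or more, about +100% in these data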;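 also: firefly luciferase made from a UUG start codon reports start codon fidelity; reporter light over untreated wells divided by growth signal over untreated wells; some hits fall short of that in this replicate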
Active calls of the source: *; ? = inconclusive; & = joins results of further samples; [ ] = dose if it differs, or a comment. A portion of the library. The share of hits here may be higher or lower than overall.

SMILES	HIV Env fusion	UUG fidelity
COc1cccc(C(=O)Nc2ccc3c(c2)OC[C@@H](C)N(C(C)=O)C[C@@H](C)[C@H](OC)CN(C)C3=O)c1	16[16.7 µM]	5
C[C@@H]1CN([C@H](C)CO)C(=O)c2cc(NS(=O)(=O)c3cccs3)ccc2O[C@@H](C)CCCCO[C@H]1CN(C)Cc1ccccc1	-22[16.7 µM]	-1
O=C(C[C@@H]1C=C[C@H](NS(=O)(=O)c2ccccc2)[C@H](CO)O1)NCCN1CCCCC1	-3[16.7 µM]	-9
COc1ccc(S(=O)(=O)Nc2ccc3c(c2)CC(=O)N([C@H](C)CO)C[C@H](C)[C@@H](CN(C)C(=O)Nc2ccc(F)cc2)O3)cc1	-20[16.7 µM]	16
CCC(=O)N[C@@H]1CC[C@H](CC(=O)OC)O[C@H]1CO	3[16.7 µM]	-2
CNC[C@H]1Oc2cc(C#CCOC)ccc2S(=O)(=O)N([C@@H](C)CO)C[C@H]1C	-6[16.7 µM]	6
C[C@@H]1CN([C@@H](C)CO)S(=O)(=O)c2ccc(C#Cc3ccncc3)cc2O[C@@H]1CN(C)CC1CC1	-47[16.7 µM]	-16
CCCC(=O)Nc1ccc2c(c1)OC[C@H](C)N(Cc1ccccc1)C[C@@H](C)[C@@H](OC)CN(C)C2=O	1[16.7 µM]	-9
C[C@H](CO)N1C[C@H](C)[C@H](CN(C)CC2CC2)Oc2ccc(NC(=O)Cc3cn(C)c4ccccc34)cc2C1=O	11[16.7 µM]	1
C[C@H](CO)N1C[C@H](C)[C@@H](CN(C)Cc2ccc3c(c2)OCCN3C)OCc2cn(nn2)CCCC1=O	-2[16.7 µM]	5
C[C@@H]1CCCCO[C@@H](CN(C)Cc2ccc3c(c2)OCO3)[C@H](C)CN([C@@H](C)CO)C(=O)c2cc(NC(=O)C3CCCCC3)ccc2O1	14[16.7 µM]	21
CS(=O)(=O)Nc1ccc2c(c1)[C@@H]1C[C@H](CC(=O)NCc3cccnc3)O[C@H](CO)[C@@H]1O2	-3[16.7 µM]	-6
C[C@H](CO)N1C[C@H](C)[C@H](CN(C)C(=O)Nc2ccc(F)cc2)OCCCC[C@H](C)Oc2ccc(NS(C)(=O)=O)cc2C1=O	-9[16.7 µM]	17
N#C[C@@H]1[C@H](c2ccc(C3=CCCCC3)cc2)[C@H](CO)N1C(=O)NC1CCCCC1	7[16.7 µM]	-1
COc1ccc(-c2cnc3c(c2)C(=O)N([C@H](C)CO)C[C@H](C)[C@H](CN(C)C)O3)cc1	-17&-42[16.7 µM]	-3&-10
COCC#Cc1ccc2c(c1)O[C@@H](CN(C)Cc1ccccc1F)[C@@H](C)CN([C@@H](C)CO)S2(=O)=O	-1[16.7 µM]	-13
C[C@H](NC(=O)C[C@H]1CC[C@H](NC(=O)CN2CCOCC2)[C@H](CO)O1)c1ccccc1	-5[16.7 µM]	-15
C[C@@H]1CN([C@H](C)CO)C(=O)Cc2cc(NS(=O)(=O)c3ccccc3)ccc2O[C@@H]1CN(C)CC1CCCCC1	-20[16.7 µM]	5
COc1ccc(-c2cnc3c(c2)C(=O)N([C@@H](C)CO)C[C@@H](C)[C@@H](CN(C)S(C)(=O)=O)O3)cc1	-38[16.7 µM]	21
C[C@@H]1CN([C@H](C)CO)C(=O)Cc2cc(NC(=O)CCN3CCOCC3)ccc2O[C@H]1CN(C)Cc1ccc(Oc2ccccc2)cc1	-3[16.7 µM]	-2
O=C(Nc1cccc(Cl)c1)N[C@H]1CC[C@H](CCNC(=O)C2CCCC2)O[C@H]1CO	-8[16.7 µM]	18
C[C@H](CO)N1C[C@H](C)[C@H](CN(C)S(C)(=O)=O)Oc2ccc(NC(=O)CCC(F)(F)F)cc2CC1=O	-3[16.7 µM]	5
C[C@H](CO)N1C[C@H](C)[C@H](CN(C)S(=O)(=O)c2cccs2)Oc2ncc(C#Cc3cccc(F)c3)cc2C1=O	35[16.7 µM]	-5
COC(=O)CCCCCCC(=O)Nc1ccc(C2OC(CSc3nc4ccccc4s3)CC(c3ccccc3)O2)cc1 (configuration not stated)	6[16.7 µM]	1

Already shown: entries from further up.
SMILES	HIV Env fusion	UUG fidelity
CS(=O)(=O)Nc1ccc2c(c1)[C@@H]1C[C@H](CC(=O)NCc3cccnc3)O[C@H](CO)[C@@H]1O2	-3[16.7 µM]	-6
C[C@H](CO)N1C[C@H](C)[C@H](CN(C)C(=O)Nc2ccc(F)cc2)OCCCC[C@H](C)Oc2ccc(NS(C)(=O)=O)cc2C1=O	-9[16.7 µM]	17
N#C[C@@H]1[C@H](c2ccc(C3=CCCCC3)cc2)[C@H](CO)N1C(=O)NC1CCCCC1	7[16.7 µM]	-1
COc1ccc(-c2cnc3c(c2)C(=O)N([C@H](C)CO)C[C@H](C)[C@H](CN(C)C)O3)cc1	-17&-42[16.7 µM]	-3&-10
COCC#Cc1ccc2c(c1)O[C@@H](CN(C)Cc1ccccc1F)[C@@H](C)CN([C@@H](C)CO)S2(=O)=O	-1[16.7 µM]	-13
C[C@H](NC(=O)C[C@H]1CC[C@H](NC(=O)CN2CCOCC2)[C@H](CO)O1)c1ccccc1	-5[16.7 µM]	-15
C[C@@H]1CN([C@H](C)CO)C(=O)Cc2cc(NS(=O)(=O)c3ccccc3)ccc2O[C@@H]1CN(C)CC1CCCCC1	-20[16.7 µM]	5
COc1ccc(-c2cnc3c(c2)C(=O)N([C@@H](C)CO)C[C@@H](C)[C@@H](CN(C)S(C)(=O)=O)O3)cc1	-38[16.7 µM]	21
C[C@@H]1CN([C@H](C)CO)C(=O)Cc2cc(NC(=O)CCN3CCOCC3)ccc2O[C@H]1CN(C)Cc1ccc(Oc2ccccc2)cc1	-3[16.7 µM]	-2
O=C(Nc1cccc(Cl)c1)N[C@H]1CC[C@H](CCNC(=O)C2CCCC2)O[C@H]1CO	-8[16.7 µM]	18

Going on with the list.
SMILES	HIV Env fusion	UUG fidelity
C[C@H]1CCCCO[C@H](CN(C)C(=O)Cc2ccccc2)[C@@H](C)CN([C@@H](C)CO)C(=O)c2cc(NC(=O)c3ccccc3)ccc2O1	-48[16.7 µM]	6
CCCNC(=O)N1C[C@@H](C)[C@@H](OC)CN(C)C(=O)c2ccc(NS(C)(=O)=O)cc2OC[C@@H]1C	13[16.7 µM]	6
CCCN(C)C[C@H]1Oc2cc(C#CCN(C)C)ccc2S(=O)(=O)N([C@H](C)CO)C[C@H]1C	-7[16.7 µM]	-3
CN(C)C(=O)c1cccc(-c2ccc([C@@H]3[C@@H](C#N)N(C(=O)C4CCCCC4)[C@@H]3CO)cc2)c1	-6[16.7 µM]	-20
C[C@@H]1CN([C@@H](C)CO)C(=O)c2cc(NS(=O)(=O)c3ccccc3)ccc2O[C@@H](C)CCCCO[C@H]1CN(C)C(=O)c1ccccc1	11[16.7 µM]	1
Cc1noc(C)c1S(=O)(=O)Nc1ccc2c(c1)C(=O)N([C@H](C)CO)C[C@H](C)[C@@H](CN(C)C)OCCCC[C@H](C)O2	15[16.7 µM]	22
C[C@@H]1CN([C@@H](C)CO)S(=O)(=O)c2ccc(C#CCN(C)C)cc2O[C@@H]1CN(C)C(=O)CC1CC1	-3[16.7 µM]	1
CC(C)C#Cc1ccc([C@@H]2[C@@H](CO)N(C(=O)CN(C)C)[C@H]2C#N)cc1	-16[16.7 µM]	9
COc1ccc(S(=O)(=O)Nc2cccc3c2O[C@H](CN(C)C(=O)Nc2ccc(C(F)(F)F)cc2)[C@H](C)CN([C@H](C)CO)C3=O)cc1	-70[16.7 µM]	14
CC(C)NC(=O)N(C)C[C@@H]1Oc2c(NS(=O)(=O)c3ccc(Cl)cc3)cccc2C(=O)N([C@@H](C)CO)C[C@H]1C	3[16.7 µM]	6
C[C@@H]1CCCCO[C@@H](CN(C)S(=O)(=O)c2cn(C)cn2)[C@@H](C)CN([C@@H](C)CO)C(=O)c2cc(NC(=O)Nc3ccccc3)ccc2O1	-31[16.7 µM]	9
CCC(=O)N(C)C[C@H]1Oc2ncc(C#CCC(C)C)cc2C(=O)N([C@H](C)CO)C[C@@H]1C	-7[16.7 µM]	3
CN(C)C(=O)c1cccc(-c2ccc([C@@H]3[C@@H](CO)N(C(=O)C4CCC4)[C@H]3C#N)cc2)c1	-11[16.7 µM]	0
C[C@H]1CN([C@@H](C)CO)C(=O)c2cccc(NC(=O)c3ccncc3)c2O[C@H]1CN(C)CC1CC1	-5[16.7 µM]	-6
COc1ccc(S(=O)(=O)N(C)C[C@H]2Oc3c(NS(=O)(=O)c4c(C)noc4C)cccc3C(=O)N([C@@H](C)CO)C[C@H]2C)cc1	10[16.7 µM]	0
Cc1ccc(S(=O)(=O)N(C)C[C@@H]2Oc3ccc(NC(=O)Nc4ccc(F)cc4)cc3CC(=O)N([C@@H](C)CO)C[C@H]2C)cc1	8[16.7 µM]	0
Cc1ccc(S(=O)(=O)Nc2ccc3c(c2)C(=O)N([C@H](C)CO)C[C@H](C)[C@H](CN(C)C(=O)CCCN(C)C)OCCCC[C@@H](C)O3)cc1	1[16.7 µM]	6
C[C@H]1CCCCO[C@H](CN(C)C(=O)NC2CCCCC2)[C@@H](C)CN([C@@H](C)CO)C(=O)c2cc(NC(=O)c3ccccc3)ccc2O1	51[16.7 µM]	15
COCCNC(=O)C[C@@H]1CC[C@@H]2[C@@H](COc3ccc(NC(=O)Nc4ccccc4)cc3C(=O)N2C)O1	12[16.7 µM]	-7
COc1ccc(-c2cn(CC[C@@H]3CC[C@H](NC(=O)c4cnccn4)[C@H](CO)O3)nn2)cc1	4[16.7 µM]	-6
Cc1ccc(S(=O)(=O)N[C@H]2CC[C@@H](CCn3cc(-c4ccccc4F)nn3)O[C@H]2CO)cc1	5[16.7 µM]	23
Cc1noc(C)c1NC(=O)NCC[C@H]1CC[C@H](NC(=O)c2ccncc2)[C@@H](CO)O1	?	-6
CC(C)NC(=O)N(C)C[C@H]1Oc2cc(C3=CCCCC3)ccc2S(=O)(=O)N([C@@H](C)CO)C[C@H]1C	?	-2
CN(C)C(=O)C[C@@H]1C[C@H]2c3cc(NC(=O)Nc4ccccc4F)ccc3O[C@H]2[C@@H](CO)O1	14[16.7 µM]	-8
C[C@H]1CN([C@@H](C)CO)C(=O)c2cc(C#Cc3ccc(F)cc3)cnc2O[C@@H]1CN(C)C	-3[16.7 µM]	-1
COc1ccc(S(=O)(=O)N[C@@H]2CC[C@H](CC(=O)NCCc3ccncc3)O[C@H]2CO)cc1	-6[16.7 µM]	-2
C[C@H]1CN([C@@H](C)CO)C(=O)Cc2cc(NC(=O)Cc3ccccc3)ccc2O[C@H]1CN(C)Cc1ccc(C(=O)O)cc1	9[16.7 µM]	-27
C[C@H]1CCCCO[C@H](CN(C)C(=O)Nc2ccc(C(F)(F)F)cc2)[C@@H](C)CN([C@@H](C)CO)C(=O)c2cc(NC(=O)Nc3ccc(F)cc3)ccc2O1	77*[16.7 µM]	-16
C[C@@H]1CCCCO[C@H](CN(C)S(=O)(=O)c2cccs2)[C@@H](C)CN([C@@H](C)CO)C(=O)c2cc(NC(=O)Nc3cccc4ccccc34)ccc2O1	8[16.7 µM]	-10
O=S(=O)(N[C@@H]1CCCN(Cc2cccc(OCCO)c2)C1)c1ccc2ccccc2c1	-1[16.7 µM]	-10
COCC(=O)N(C)C[C@H]1Oc2ncc(-c3ccccc3F)cc2C(=O)N([C@H](C)CO)C[C@H]1C	-4[16.7 µM]	9
C[C@@H]1CN([C@@H](C)CO)S(=O)(=O)c2ccc(C3=CCCC3)cc2O[C@H]1CN(C)C(=O)c1ccncc1	-7[16.7 µM]	-17
C[C@@H]1CN([C@H](C)CO)S(=O)(=O)c2ccc(-c3ccccc3)cc2O[C@@H]1CN(C)Cc1ccncc1	1[16.7 µM]	-1
C[C@H]1CN([C@@H](C)CO)C(=O)Cc2cc(NS(=O)(=O)c3cccs3)ccc2O[C@H]1CN(C)Cc1ccc(Oc2ccccc2)cc1	-15[16.7 µM]	43
CCC(=O)N(C)C[C@H]1Oc2ncc(-c3ccc(C)cc3)cc2C(=O)N([C@@H](C)CO)C[C@@H]1C	-3[16.7 µM]	-13
COc1ccc(S(=O)(=O)Nc2ccc3c(c2)CC(=O)N([C@H](C)CO)C[C@@H](C)[C@H](CN(C)S(=O)(=O)c2ccc(C)cc2)O3)cc1	?	-4
C[C@H]1CCCCO[C@H](CN(C)C(=O)CCC(F)(F)F)[C@@H](C)CN([C@@H](C)CO)C(=O)c2cc(NC(=O)Nc3ccccc3)ccc2O1	27[16.7 µM]	1
C[C@H](CO)N1C[C@H](C)[C@@H](CN(C)C(=O)Nc2ccccc2F)Oc2cc(C#CCN(C)C)ccc2S1(=O)=O	-36[16.7 µM]	17
C[C@H]1CN([C@@H](C)CO)C(=O)c2cc(NC(=O)Nc3cccc4ccccc34)ccc2O[C@@H]1CN(C)C(=O)Nc1ccc(F)cc1	10[16.7 µM]	-13
O=C(C[C@@H]1C=C[C@@H](NS(=O)(=O)c2ccc(F)cc2)[C@H](CO)O1)NC1CCC1	-7[16.7 µM]	-3
C[C@@H]1CN([C@@H](C)CO)S(=O)(=O)c2ccc(-c3cncnc3)cc2O[C@H]1CN(C)C(=O)Cc1ccncc1	-12[16.7 µM]	2
Cc1noc(C)c1S(=O)(=O)Nc1ccc2c(c1)C(=O)N([C@@H](C)CO)C[C@H](C)[C@@H](CN(C)Cc1ccncc1)O2	-10[16.7 µM]	-6
C[C@@H]1CN([C@H](C)CO)C(=O)c2cc(NC(=O)CCC(F)(F)F)ccc2O[C@H]1CN(C)Cc1ccncc1	-6[16.7 µM]	4
CO[C@H]1CN(C)C(=O)c2cc(NC(=O)C3CCCCC3)ccc2OC[C@H](C)N(C(=O)c2ccccc2)C[C@H]1C	-7[16.7 µM]	-7
CCCNC(=O)N1[C@H](C#N)[C@@H](c2ccc(-c3ccc(C(=O)N(C)C)cc3)cc2)[C@@H]1CO	-61[16.7 µM]	-4
